# High-throughput results from PubChem.
# TRPV1 potentiator – HTS Assay for Compounds that Act as Potentiators of the Vanilloid Receptor 1. AID 540277, 2011. potentiation, % at 8.33 µM. TRPV1-expressing cells, Fluo-8 calcium influx, capsaicin EC20 potentiation; host cell line not named in the record; control for the full effect not named in the record. actives 0.02% (n = 320,000); active means potentiation above 80%; inconclusive means 30% to 80%; inactive means below 30%; also: 0% is about no effect
#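 Fluo-8 calcium influx in TRPV1-expressing cells, kinetic read (ex 480/em 520 nm). Compound added and read 3 min for agonist activity, followed by capsaicin at EC20 final and 2 min further read for enhancement.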
# D2 PAM – Beta-Arrestin HTS for Positive Allosteric Modulators of the Human D2 Dopamine Receptor: Potentiators; potentiation, % (test concentration not listed); DiscoveRx D2 beta-arrestin cells, luminescence, 90 min; 100% = 57 uM dopamine signal; AID 624464, 2012; actives 0.23% (n = 360,000); active = potentiation of 50% or more; inconclusive = 30% to 50%; inactive = 30% or less;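 also: compound concentration not given in the record; tested on top of an EC20 dose of dopamine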
# Target sequence (P14416 whole entry, looked up): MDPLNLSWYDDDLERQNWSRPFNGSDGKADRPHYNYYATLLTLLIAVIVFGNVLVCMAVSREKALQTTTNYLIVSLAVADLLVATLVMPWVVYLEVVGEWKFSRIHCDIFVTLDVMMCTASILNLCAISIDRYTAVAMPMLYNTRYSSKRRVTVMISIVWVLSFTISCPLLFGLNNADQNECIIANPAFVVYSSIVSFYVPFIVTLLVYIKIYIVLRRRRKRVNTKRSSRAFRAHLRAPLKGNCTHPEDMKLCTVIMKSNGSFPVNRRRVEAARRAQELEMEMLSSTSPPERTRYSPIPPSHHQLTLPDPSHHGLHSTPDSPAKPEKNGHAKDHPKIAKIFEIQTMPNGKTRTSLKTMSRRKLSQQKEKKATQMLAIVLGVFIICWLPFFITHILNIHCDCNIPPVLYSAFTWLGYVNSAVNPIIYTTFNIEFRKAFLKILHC
#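 D2 cells co-treated with compound plus 50 nM dopamine (EC20) for 90 min at 37 deg C to detect potentiation. Beta-arrestin recruitment was read as enzyme-fragment luminescence after 1 h at ambient temperature. Full response was set by 57 uM dopamine.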
# TRPML1 blocker – qHTS for Inhibitors of the Human Mucolipin Transient Receptor Potential 1 (TRPML1); Mucolipin-1 (Homo sapiens), Q9GZU1; TRPML1-inducible cells, Ca2+ dye fluorescence, FDSS; stronger effect = lower value; inhibition of EC80 agonist-evoked calcium signal; activity change, negative = inhibition, % (no concentration beside the values); actives 0.02% (n = 390,000); in the data active means activity change below about -50%; inconclusive means about -30% to -50%; inactive means above about -30%;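 also: stimulus is agonist 54-4 at its EC80 concentration; % is scaled to controls: 0 for no effect and ±100 for the full control effect; compound concentration not given in the record; the text of the record puts the active cut at -80%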
# Target sequence (Q9GZU1 whole entry, looked up): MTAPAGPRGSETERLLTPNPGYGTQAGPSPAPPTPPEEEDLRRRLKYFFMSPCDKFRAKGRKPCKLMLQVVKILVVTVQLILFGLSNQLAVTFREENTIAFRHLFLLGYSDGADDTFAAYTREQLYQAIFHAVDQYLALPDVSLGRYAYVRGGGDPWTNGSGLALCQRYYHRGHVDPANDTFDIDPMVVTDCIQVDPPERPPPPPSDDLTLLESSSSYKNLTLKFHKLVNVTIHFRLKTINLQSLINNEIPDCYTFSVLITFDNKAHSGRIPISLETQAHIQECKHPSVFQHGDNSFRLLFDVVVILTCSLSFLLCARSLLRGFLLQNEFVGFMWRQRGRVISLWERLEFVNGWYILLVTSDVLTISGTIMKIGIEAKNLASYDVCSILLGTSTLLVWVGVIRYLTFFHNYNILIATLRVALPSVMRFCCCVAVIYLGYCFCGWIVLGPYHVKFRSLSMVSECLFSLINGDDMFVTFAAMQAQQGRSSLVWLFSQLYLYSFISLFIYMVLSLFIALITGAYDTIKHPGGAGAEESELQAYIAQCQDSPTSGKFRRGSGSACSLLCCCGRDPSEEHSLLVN
#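 Tet-induced TRPML1-DL cells loaded with Ca8 no-wash calcium dye were read kinetically on FDSS. Compound addition was followed by EC80 agonist 54-4 (4 uM final); inhibition was read over 110 s.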
# TRPML1 agonist – qHTS for Agonists of the Human Mucolipin Transient Receptor Potential 1 (TRPML1); Mucolipin-1 (Homo sapiens), Q9GZU1; actives 0.12% (n = 410,000); activation, % (concentration not given with the values); AID 624414, 2012; TRPML1-expressing cells, Ca2+ dye fluorescence, FDSS; host cell line not named in the record; reference of the full effect not given here; in the data active = activation above about 50%; inconclusive = about 30% to 50%; inactive = below about 30%; also: 0% is about no effect; the text of the record puts the active cut at 80%
#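 Agonist activity was taken from a 110 s kinetic Ca2+ dye read on the FDSS after pinning compounds onto TRPML1-DL cells. The cells were seeded at 1,500/well with Tet inducer, incubated about 16 h, then dye-loaded at room temperature.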
# CtBP-E1A blk – qHTS Assay for Inhibitors of the CtBP/E1A Interaction; AID 651724, 2012; activity change, % (no concentration beside the values); actives 0.49% (n = 340,000); AlphaScreen GST-E1A/His-CtBP binding, 1536-well; stronger effect = lower value; control for the full effect not named in the record; CtBP / adenovirus E1A interaction (AlphaScreen); in the data active means activity change below about -65%; inconclusive means about -30% to -65%; inactive means above about -30%; also: % is scaled to controls: 0 for no effect and ±100 for the full control effect; compound concentration not given in the record
#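 In 5 uL wells, 23 nL compound meets equimolar GST-E1A and His-CtBP (5X stock 125 nM each) for 2 h, 37 °C. Beads (5X, 50 ug/mL) then 1 h, 37 °C, dark.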
# Six1-Eya2 blk – qHTS Assay for Inhibitors of the Six1/Eya2 Interaction. AID 651725, 2012. actives 0.56% (n = 360,000). AlphaScreen GST-Six1/His-Eya2 binding, biochemical; stronger effect = lower value; control for the full effect not named in the record. Homeobox protein SIX1 (Homo sapiens) + Protein phosphatase EYA2 (Homo sapiens), …. activity change, % (concentration not given with the values); in the data active = activity change below about -65%; inconclusive = about -30% to -65%; inactive = above about -30%; also: % is scaled to controls: 0 for no effect and ±100 for the full control effect
#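 Six1/Eya2 binding was read as AlphaScreen signal after compounds were pinned into GST-Six1 plus His-tagged Eya2 (5X stock 250/500 nM) in pH 8.0 Tris/NaCl/TCEP buffer, beads added, then incubated 1 h, 37 C, dark.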
# * marks the source's active call; other numbers are inactive results; ? = inconclusive; nt = not tested or not shown; & = joins results of further samples.
SMILES,TRPV1 potentiator,D2 PAM,TRPML1 blocker,TRPML1 agonist,CtBP-E1A blk,Six1-Eya2 blk
COc1cc(/C=C2/C(=O)N(c3cccc(Br)c3)N=C2C)cc(OC)c1O,-3,-31,-10,0.1,nt,6
CC(C)(O)C#Cc1ccc(CNC[C@H]2O[C@@H](n3cnc4c(N)ncnc43)[C@H](O)[C@@H]2O)s1,nt,-5,22,-0.4,3,2
CNC(=O)c1ccc(-c2cc3onc(-c4ccccc4)c3c(=O)n2C)cc1,nt,-20,22,-0.1,0,-2
CC(C)(C)OC(=O)C[C@@H]1C/C=C\C[C@@H](CC(=O)N(CCO)Cc2ccccc2)C(=O)NC[C@H](c2ccccc2)OC1=O,nt,15,0,0.4,-12,7
CC1CCN(C(=O)COC(=O)/C=C/c2ccc(Br)o2)CC1,-4,-1,-2,-0.4,1,0
CCCCCCN1C[C@@H](n2cc(C3CC3)nn2)[C@H](O)C[C@@H]1c1ccccc1,nt,5,-14,-0.4,3,0
CCn1c(SCc2ccc([N+](=O)[O-])cc2)nnc1C(C)NC(=O)c1ccc(C)cc1 (configuration not stated),-22,-7,9,-0.5,13,2
CCCCn1cc2c(c1-c1cccc(C)c1)c(=O)n(C)c(=O)n2C,-12,-15,17,0.3,nt,-5
CCC(C)NC(=O)CCn1ccc2cc(S(=O)(=O)N3CCCC3)ccc21 (configuration not stated),5,5,9,0.0,0,0
C[C@@H]1CN([C@H](C)CO)S(=O)(=O)c2ccc(Br)cc2O[C@H]1CN(C)C(=O)Nc1ccc(F)cc1,nt,0,5,2.0,-2,0
CCCN(C(=O)c1c(CC)noc1C)c1c(N)n(Cc2ccccc2)c(=O)[nH]c1=O,-2,15,-16,0.2,5,-2
CCc1nc(Cl)c(C#N)c2c1CCCC2,1,0,-1,-0.7,-17,4
Cc1ccc(-c2nnc3ccc(SCC(=O)N4CCCc5ccccc54)nn23)cc1,24,-17,-21,2.1,3,2
CCCCn1c(N)c(N(CCOC)C(=O)COC(=O)Cc2cccc(OC)c2)c(=O)[nH]c1=O,11,-16,28,0.5,-3,8
CCCCc1ccc(S(=O)(=O)N/N=C(/C)c2ccncc2)cc1,-5,15,11,-0.3,-3,11
CC(=O)Nc1sc(C)c(C)c1C(=O)OCC(=O)N(CC(C)C)c1c(N)n(Cc2ccccc2)c(=O)[nH]c1=O,3,-4,-12,1.2,-1,-2
C/C(=N/Nc1ccc(C(=O)O)cc1)c1ccc2c(c1)Nc1ccccc1S2,nt,?,6,1.1,-5,-9
CC(C)N(Cc1ccccc1)C(=O)COC(=O)C1CCCCC1,nt,-23,-12,0.0,6,3
CCC(C)(C)NC(=O)C(c1ccccc1Cl)N(C(=O)CCC(=O)Nc1cc(C)on1)C1CC1 (configuration not stated),14,-7,3,-1.0,-3,0
O=C(Nc1ccncc1)Nc1ccccn1,8,27,-9,-0.1,5,-2
CCc1ccccc1-n1c(SCC(=O)NC)nnc1-c1ccco1,2,-2,-17,-0.9,nt,-4
COc1cccc(/C(O)=C2/C(=O)C(=O)N(CCN(C)C)C2c2ccccn2)c1 (configuration not stated),-16,-14,0,-0.5,-11,-18
NCCCCc1ccc2ccc3cccc4ccc1c2c34,-8,-24,12,0.1,3,1
O=C(NCCN1CCOCC1)c1ccc(Cl)cc1O,4,-12,-9,0.7,0,0
COc1ccc(S(=O)(=O)Nc2ccc(C(F)(F)F)cc2)cc1OC,9,4,-15,0.1,2,12

# A different layout for part of the listing above:
COc1cc(/C=C2/C(=O)N(c3cccc(Br)c3)N=C2C)cc(OC)c1O
  TRPV1 potentiator: -3
  D2 PAM: -31
  TRPML1 blocker: -10
  TRPML1 agonist: 0.1
  CtBP-E1A blk: nt
  Six1-Eya2 blk: 6
CC(C)(O)C#Cc1ccc(CNC[C@H]2O[C@@H](n3cnc4c(N)ncnc43)[C@H](O)[C@@H]2O)s1
  TRPV1 potentiator: nt
  D2 PAM: -5
  TRPML1 blocker: 22
  TRPML1 agonist: -0.4
  CtBP-E1A blk: 3
  Six1-Eya2 blk: 2

# Filtered by structure, the compounds so far containing bromine
SMILES,TRPV1 potentiator,D2 PAM,TRPML1 blocker,TRPML1 agonist,CtBP-E1A blk,Six1-Eya2 blk
COc1cc(/C=C2/C(=O)N(c3cccc(Br)c3)N=C2C)cc(OC)c1O,-3,-31,-10,0.1,nt,6
CC1CCN(C(=O)COC(=O)/C=C/c2ccc(Br)o2)CC1,-4,-1,-2,-0.4,1,0
C[C@@H]1CN([C@H](C)CO)S(=O)(=O)c2ccc(Br)cc2O[C@H]1CN(C)C(=O)Nc1ccc(F)cc1,nt,0,5,2.0,-2,0

# Going on with the list:
SMILES,TRPV1 potentiator,D2 PAM,TRPML1 blocker,TRPML1 agonist,CtBP-E1A blk,Six1-Eya2 blk
C=CCn1c(SCC(=O)N(CCC)C2CCS(=O)(=O)C2)nnc1-c1ccccc1OC (configuration not stated),-5,19,5,-0.5,-3,2
COc1cccc(-n2nc(C(C)=O)c(=O)[nH]c2=O)c1,2,1,17,2.2,1,9
Nc1ncnc(Nc2ccc(F)c(Cl)c2)n1,-3,-7,12,4.7,-11,-4
Cc1cccc(C)c1-n1nnnc1C1(C)CCC(=O)N1Cc1ccco1 (configuration not stated),nt,nt,nt,-0.7,5,-5
CCOC(=O)C1CCN(C(=O)c2sc3nc(-c4ccc(F)cc4)cn3c2C)CC1,-5,-31,63,2.1,4,-1
COc1cccc(NC(=O)C2CCCN2C(=O)Nc2ccccc2F)c1 (configuration not stated),-1,-9,-8,-0.5,11,4
COCc1nnc(NC(=O)COc2ccc3c(c2)OCO3)s1,2,0,-4,1.5,5,4
COc1ccc(-c2cc(C3CCN(Cc4cccc(C(F)(F)F)c4)CC3)[nH]n2)cc1,-3,-13,-7,0.5,-11,-14
Cc1nc2nc(CCc3ccccc3)nn2c(C)c1Cl,-4,-6,-6,3.2,4,2
CCc1c(C2(O)CCCCC2)[nH]c2ncccc12,2,-9,6,-0.5,-6,-9
C/C(=N\Nc1nc(-c2cc(C)ccc2C)cs1)c1cc2c(ccc3ccccc32)oc1=O,7,11,-8,0.8,0,-12
CC[n+]1c(/C=C(/C)SC)sc2ccccc21,-7,-13,-10,2.2,5,-2
Cc1cc(C)nc(SCC(=O)N/N=C\C(Br)=C\c2ccccc2)n1,23,-3,2,0.9,-2,17
O=C(CCc1nc2ccccc2c(=O)[nH]1)NCc1ccccn1,1,-6,-1,0.0,1,3
CC(=O)NNC(=O)c1nc(-c2ccccc2)c(C)o1,0,-13,-7,-0.6,nt,4
O=[N+]([O-])c1cnc(Sc2ccncn2)s1,1,-24,-16,0.2,nt,-13
COc1ccc(N2CCN(CC(=O)Nc3nc4c(s3)CC(C)CC4)CC2)cc1 (configuration not stated),15,3,1,1.5,?,?
COc1ccc(C(CNC(=O)C(CC(C)C)NS(=O)(=O)c2ccc(C)cc2)N2CCOCC2)cc1 (configuration not stated),9,-14,-8,-0.5,-4,6
CCOCCCNc1c(CC)c(C)c(C#N)c2nc3ccccc3n12,-4,12,7,1.5,nt,2
Cc1ccc(-c2csc(SCC(=O)c3c(N)n(C4CC4)c(=O)[nH]c3=O)n2)cc1,2,-1,18,0.5,-13,-2
CN(C)CCCN(C(=O)c1ccc(S(=O)(=O)N2CCc3ccccc3C2)cc1)c1nc2ccc(F)cc2s1,-11,-9,11,-0.3,-13,6
CC1(NS(=O)(=O)c2ccc(Cl)s2)CCS(=O)(=O)C1 (configuration not stated),nt,-6,-10,0.7,0,8
OC1(c2cccs2)CN(c2ccccc2)C2=[N+]1CCCC2 (configuration not stated),-8,-10,26,1.5,5,-1
CCCn1c(SCc2ccc(Cl)cc2)nc2c1c(=O)[nH]c(=O)n2C,-3,-2,-9,3.7,-1,-3
COc1ccc2c(c1)c(C(=O)OCCN(C)C)c(C)n2C,-2,-27,10,0.7,-1,-18
# The list goes on.
SMILES,TRPV1 potentiator,D2 PAM,TRPML1 blocker,TRPML1 agonist,CtBP-E1A blk,Six1-Eya2 blk
CC(C)CCOc1ccc(Cl)cc1CN1CCOCC1,-8,-14,-1,-0.6,0,0
CCCN1CCC(=O)N([C@H](COc2ccccc2)CC(C)C)CC1,?,-118,9,-0.8&-0.5,7,-4
CC(C)Oc1cc(S(=O)(=O)N2CCCCC2)ccc1N,-11,6,34,-0.4,3,2
CCOc1cc(C(=S)N2CCOCC2)ccc1OS(=O)(=O)c1ccc(OC)cc1,14,-2,-11,-0.7,-5,-6
[O-]/[N+](=C/c1ccccc1)c1ccccc1,1,-8,14,0.0,0,13
COc1ccc(N2C(=O)CC(NNC(=O)c3cc(C)oc3C)C2=O)cc1 (configuration not stated),7,-2,9,-0.3,-3,7
O=C(Nc1ccc2c(c1)nc1n2CCSC1)c1ccco1,?,-3,11,0.5,-1,-5
CCOc1ccccc1N1CCN(C(=O)c2ccc3[nH]c(C)c(C)c3c2)CC1,-16,-7,-2,0.4,nt,-24
Cc1ccccc1NC(=O)N1CCCN(c2ccc(C#N)cn2)CC1,-8,-4,-1,-0.8,-2,10
Cc1cccc(NC(=O)c2cnn(C)c2)c1C,-6,-5,-1,0.2,1,10
Cn1ccnc1SCc1cn2cc(Br)ccc2n1,3,-17,4,-1.2,2,-4
COC(=O)c1ccc2nc(-c3cccc(Cl)c3)c(Cc3ccccc3)n2c1,nt,nt,nt,0.0,11,0
Cc1ccc[n+](Cc2ccc([N+](=O)[O-])cc2)c1,-4,3,-7,-0.1,8,1
Cc1ccc(CNC(=O)C(=O)NCC2OCCCN2S(=O)(=O)c2ccc(F)cc2)cc1 (configuration not stated),-6,-5,16,1.8,0,10
NC(=O)c1ccc(NCc2ccco2)c([N+](=O)[O-])c1,8,-14,11,-0.9,-12,-15
CCOC(=O)C1=C(CN2CC(C)CC(C)C2)NC(=O)NC1c1ccc2c(c1)OCO2 (configuration not stated),-9,-10,-16,-0.8,-4,-9
CC(=O)c1ccc(OCCCC(=O)NC(C)c2ccc(S(N)(=O)=O)cc2)cc1 (configuration not stated),-1,-11,1,-0.1,nt,6
O=C(COc1ccc2ccc(=O)oc2c1)NCCN1CCOCC1,nt,-5,-1,-0.2,-8,7
CC(=O)Nc1cccc(NC(=O)CCN2C(=O)c3ccccc3S2(=O)=O)c1,2,-2,21,-0.1,0,8
O=C(Cn1ccc(NC(=O)OCc2ccccc2)nc1=O)NCCc1ccccn1,16,0,24,-0.2,4,7
COc1ccc(N(CC(=O)NCc2ccco2)S(=O)(=O)c2ccccc2)cc1,-14,0,5,-0.5,-3,-4
COCc1cc(C)nc(NCCc2ccccc2)c1C#N,21,-7,0,-0.1,31,17
Cc1onc(-c2ccccc2Cl)c1C(=O)NCC(=O)O,1,6,0,2.6,6,5
COc1cc(OC)c(C(=O)OCC(=O)Nc2ccc(S(=O)(=O)N3CCOCC3)cc2)cc1OC,nt,-1,8,0.7,-4,-12
